Screening results (PubChem)
Bead autofluor – compound fluorescence in toxin protease inhibitor counterscreen. compound autofluorescence counterscreen, microsphere flow cytometry; hits give high values. fluorescence intensity (no concentration beside the values). actives 3.1% (n = 360,000). AID 624483;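 active = at least 3 SD above the mean of all compounds, about 16000 in these data; inconclusive = too few beads counted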;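 note: 100 nL of 1 mM stock went into each well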
ugtP null kill – growth inhibition of S. aureus ugtP deletion strain. S. aureus RN4220 ugtP deletion, OD600 growth, 16 h; some inactives read as strong as hits. growth inhibition, % (concentration not given with the values). actives 0.54% (n = 330,000). AID 1259309;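 active = z-score under -3 and OD600 up to 0.15 on both plates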;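 note: plate controls were untreated wells for no effect and antibiotic for full effect; wells of about 80 µL received 100 nL stock; the first replicate is given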
PrP UTR inh – suppresses PrP 5' UTR mRNA reporter expression; cell-based PrP 5' UTR mRNA reporter, plate reader; inhibition, % (no concentration beside the values); actives 0.35% (n = 340,000);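 active = every replicate at 50% or more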;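 note: 0 = median of the neutral control wells; tested in H4 reporter cells; numbers are from one replicate; inactives centre near -14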
Mtb hypoxia rep – inhibitors of hypoxia-regulated fluorescent reporter in Mycobacterium tuberculosis; M. tuberculosis hypoxia-regulated fluorescent reporter, fluorescence; actives 0.1% (n = 300,000); fluorescence inhibition, % (concentration not given with the values); AID 1159583;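 active = 35 to 45% if threefold the growth effect, above 45% if 1.5-fold the growth effect; inactive = the rest, general growth blockers included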;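 note: wells of about 50 µL received 100 nL stock; 0% = vehicle wells and 100% = reference inhibitor wells; whole bacteria with a GFP reporter of the hypoxia response; strong numbers were not always called active; many hits fall short of the cut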
BJeLR viability – BJeLR cell viability loss; BJeLR (HRASV12) viability, CellTiter-Glo ATP luminescence, 48 h; reference of the scale not given here; actives 0.17% (n = 300,000); inhibition, % (concentration not given with the values);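 active = replicate mean above 50%; inconclusive = above 50% but judged a plate artefact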;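 note: 50 nL library stock added to about 25 µL; numbers are from one replicate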
Sa RN4220 lethal – S. aureus RN4220 growth inhibition. OD600, 16 h. inhibition, % (no concentration beside the values). actives 0.33% (n = 330,000). AID 1259311;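 active = z-score of -3 or lower and OD600 up to 0.18 on both plates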;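 note: plate controls were untreated cells for no effect and reference antibiotic for full effect; stock transfer was 100 nL into about 80 µL; one replicate is shown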
Mtb hypoxia rep growth – further read-out of Mtb hypoxia rep, marked with its call; growth inhibition, %; measured here: M. tuberculosis growth (absorbance);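 0% = vehicle and 100% = reference antibiotic; read after six days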
* hit, by the source's call; ? = inconclusive; . = no result given; & = joins results of further samples.

SMILES | Bead autofluor | ugtP null kill | PrP UTR inh | Mtb hypoxia rep | Mtb hypoxia rep growth | BJeLR viability | Sa RN4220 lethal
COc1cc(C(=O)NCCC(c2ccccc2)c2ccccc2)cc(OC)c1OC | 3460 | 27.0 | -14.9 | 16.9 | 8.0 | -7.8 | -4.8
CN1C(=O)c2ccccc2Sc2ccc(NC(=O)NC3CC3)cc21 | 3500 | 5.4 | 10.4 | 6.2 | 8.0 | 1.4 | -5.7
CCN(C(=S)NC(=O)C1CC1)c1ccccc1 | 4886 | 8.7 | 3.4 | 16.6 | 13.8 | 2.1 | 3.9
CC(C)[C@H]1COCCS(=O)(=O)N1Cc1ccccc1-c1cccc(Cl)c1 | 2954 | -16.6 | -8.5 | 6.7 | 9.8 | . | 8.6
CC(C)S(=O)(=O)C/C(N)=N/OC(=O)c1cc(Cl)cc(Cl)c1 | 4318 | 6.8 | -38.0 | 8.2 | 12.4 | 5.3 | 3.5
CC(C)N(Cc1ccccc1)C(=O)COC(=O)C1CCCCC1 | 4191 | -1.4 | -20.9 | 8.0 | 4.3 | . | 6.3
CC[n+]1c(-c2ccccc2)csc1Nc1c(C)n(C)n(-c2ccccc2)c1=O | 2312 | 5.5 | -6.4 | 3.6 | 4.1 | -5.5 | 0.7
CC(=Nc1ccc2c(c1)nc(CO)n2C)C1=C(O)CC(C)(C)CC1=O | 9072 | 2.9 | 3.8 | 4.8 | 8.8 | 6.1 | 6.0
CCOc1ccc(NC(=O)C2CC(=O)N(C)C(=Nc3ccc4c(c3)OCO4)S2)cc1 (configuration not stated) | 12733 | -1.4 | -3.7 | 8.3 | 1.8 | 0.4 | -0.7
Cc1ccccc1OCC(=O)NNC(=O)c1cc(S(=O)(=O)N(C)C)ccc1N1CCCC1 | 5972 | 2.1 | -16.7 | 11.0 | -23.8 | -7.1 | 0.0
Cc1ccc(-c2nc(SCC(N)=O)c(C#N)c3c2CCCC3)cc1 | 4323 | 1.9 | -6.8 | 17.1 | 6.5 | -4.6 | 3.2
CC(=O)c1cc2c(cc1N/C(=N/S(=O)(=O)c1ccc(C)cc1)c1ccccc1)OCO2 | 2111 | -0.5 | -17.9 | 12.8 | 0.6 | -1.2 | 6.1
O=C(Nc1cccnc1)c1cccc(S(=O)(=O)Nc2ccccc2F)c1 | ? | 4.7 | 9.8 | 0.9 | 8.3 | . | 1.0
Cc1ccc(SCc2cc(=O)n3[nH]c(C)nc3n2)cc1 | 4345 | -3.2 | -21.8 | . | . | -0.6 | -7.0
COc1ccc(Cc2nnc(NC(=O)Nc3ccc(F)cc3)s2)cc1OC | 3608 | -14.6 | -12.2 | -6.6 | -9.8 | -2.0 | 0.4
O=C(NCc1ccco1)c1cnc2sccn2c1=O | 4163 | 2.2 | -3.7 | 3.8 | -2.8 | 7.5 | 1.5
CC1CCCC(C)N1C(=O)COC(=O)c1ccc(Br)o1 (configuration not stated) | 4298 | 7.7 | -10.7 | 7.6 | 5.3 | . | 4.0
COc1ccc(C=NNC(=O)c2ccc(COCC(F)(F)C(F)F)cc2)cc1 | . | -2.1 | . | 6.5 | -1.2 | . | -2.8
CC(Oc1ccccc1)C(=O)N=Nc1c(O)[nH]c2ccc(Br)cc12 (configuration not stated) | 3260 | 3.3 | -15.1 | 13.8 | 7.7 | 10.1 | 8.8
CCN(CC)C(=O)Cn1c(=O)n(-c2ccccc2)c(=O)c2c3c(sc21)CCC3 | 8479 | 2.7 | -24.3 | 16.3 | 15.7 | -2.7 | 6.1
C[C@H](NC(=O)[C@H]1N2C(=O)c3ccccc3C2SC1(C)C)C(=O)N1CCCCC1 (some centres not stated) | 4928 | 3.5 | -8.3 | 4.3 | -1.1 | 2.0 | -0.8
Cc1ccnc(NC(=O)CNC(=O)Cc2cccc3ccccc23)c1 | 4640 | 9.2 | -36.5 | 7.3 | -3.4 | 0.6 | 2.9
Cc1sc(NC(=O)CS(=O)(=O)c2ccccc2)c(C(N)=O)c1C | 5684 | 4.0 | -41.1 | -1.6 | -5.4 | -3.9 | 1.9
COc1ccc2oc(=O)c(C(=O)Nc3ccccc3-c3ccccc3)cc2c1 | 11022 | -7.9 | -15.1&0.6 | 0.7 | 7.4 | . | 0.9
Cc1ccc(N2CC(NS(=O)(=O)c3cccnc3)CC2=O)cc1 (configuration not stated) | ? | 14.0 | -18.0 | 6.0 | -3.9 | -14.2 | 5.3
COc1cc2c(cc1OC)CN(c1nc(CN3CCOCC3)nc3sc4c(c13)CCCC4)CC2 | 2362 | -18.5 | 1.0 | -10.7 | 2.2 | -11.9 | -7.9
Cc1ccc(N2CC(C(=O)Nc3cc(Cl)ccc3-n3cncn3)CC2=O)cc1 (configuration not stated) | ? | 6.3 | -2.9 | -0.6 | 10.8 | -1.9 | 4.1
O=C(NNC(=O)C1CCC1)c1ccccc1 | 3116 | -2.7 | -2.5 | 8.7 | 1.1 | . | 1.0
COc1ccc(C(C)(C)C)cc1NC(=O)CCN1C(=O)NC(C)(C)C1=O | 3884 | 1.2 | -20.5 | 5.8 | 2.5 | . | 7.0
CC(=O)CNc1ccc(S(=O)(=O)N/N=C/c2ccccc2)cc1 | 3644 | . | -8.3 | . | . | -3.4 | .

Full records as entered above:
COc1ccc2oc(=O)c(C(=O)Nc3ccccc3-c3ccccc3)cc2c1 is entered as Bead autofluor: 11022; ugtP null kill: -7.9; PrP UTR inh: -15.1&0.6; Mtb hypoxia rep: 0.7; Mtb hypoxia rep growth: 7.4; BJeLR viability: .; Sa RN4220 lethal: 0.9
CC(Oc1ccccc1)C(=O)N=Nc1c(O)[nH]c2ccc(Br)cc12 (configuration not stated) is entered as Bead autofluor: 3260; ugtP null kill: 3.3; PrP UTR inh: -15.1; Mtb hypoxia rep: 13.8; Mtb hypoxia rep growth: 7.7; BJeLR viability: 10.1; Sa RN4220 lethal: 8.8

Remaining list, next part:
SMILES | Bead autofluor | ugtP null kill | PrP UTR inh | Mtb hypoxia rep | Mtb hypoxia rep growth | BJeLR viability | Sa RN4220 lethal
COC(=O)C1(CCSC)NC(c2ccc(O)c(OC)c2)C2C(=O)N(c3ccc(C)cc3)C(=O)C21 (configuration not stated) | 4629 | 18.7 | -5.2 | -9.0 | 0.4 | -24.0 | 10.6
Cc1cccc(/C=N/n2c(C)cc(C)c(C#N)c2=O)c1 | ? | . | 0.6 | . | . | -1.1 | .
Cc1c(C(=O)N2CCCC2)c(S(=O)(=O)Nc2ccccc2)c(C)n1C | 5049 | 0.3 | 2.0 | 8.3 | 13.6 | -4.5 | 0.1
COCC(=O)Nc1cc(C)cn(Cc2cccc(C(F)(F)F)c2)c1=O | 5447 | -3.3 | -12.2 | -21.2 | -24.3 | -7.0 | 0.3
S=C1NCN(CCc2ccccc2)CN1 | 5982 | 3.3 | -30.1 | 0.3 | -5.0 | -9.8 | 3.2
COP(=O)(OC)C1(O)C(=O)Nc2ccc(Br)cc21 (configuration not stated) | 2385 | 6.1 | 18.2 | 6.0 | 3.6 | 4.6 | 1.5
Cc1ccc(S(=O)(=O)Nc2cc3c4c(c2)CCN4C(=O)CC3)cc1 | 4731 | -0.4 | -8.4 | -2.6 | -1.5 | -0.3 | 7.3
O=C(CN1CCN(c2ccccn2)CC1)N1c2ccccc2Sc2ccc(C(F)(F)F)cc21 | 17711* | 1.5 | -21.3 | 9.2 | 1.9 | 0.7 | 18.4
Cc1nc(NC(=O)c2c(-c3ccccc3)noc2C)sc1C(=O)N(C)C | 5838 | -0.1 | -6.3 | -1.3 | 2.0 | . | 0.5
CC(/C=C/c1cccc([N+](=O)[O-])c1)=NNC(=O)c1cccnc1 | . | 0.3 | . | -15.7 | -5.5 | . | 4.0
O=C(COC(=O)c1ccc([N+](=O)[O-])o1)Nc1ccc(N2CCOCC2)cc1 | 2931 | 11.8 | -4.8 | . | . | . | 7.6
O=C(O)c1ccc(Nc2nc3c(s2)CCCC3)cc1 | 2863 | . | 23.9 | . | . | -4.0 | .
CC1=NN(C(=O)CCc2ccccc2)C(O)(c2ccncc2)C1 (configuration not stated) | 3535 | 5.6 | 4.3 | -0.4 | -1.5 | 2.3 | 5.0
O=C(O)c1cnn(-c2nc(-c3cccc(F)c3)cs2)c1C(F)(F)F | 4684 | 12.8 | -23.0 | 3.4 | 4.1 | -1.2 | 8.1
COc1ccc(N2CCN(C(=O)Cc3cccs3)CC2)cc1 | 4096 | 4.8 | -14.1 | . | . | 30.3 | -2.7
Cc1[nH]c(C)c(S(=O)(=O)N2CCC(C)CC2)c1C(=O)N1CCCC1 | 4364 | 8.2 | -13.5 | -0.3 | -5.6 | 2.6 | 4.7
Cc1ccsc1C=NNC(=O)Nc1ccccc1 | . | -2.0 | . | 9.1 | 8.1 | . | 6.2
O=[N+]([O-])c1ccccc1C=NNC1=NS(=O)(=O)c2ccccc21 | . | 14.3 | . | -7.1 | 6.0 | . | 5.2
CCOc1ccc(NC(=O)c2cc3cc4ccc(OC)cc4nc3o2)cc1 | 3583 | 6.1 | -18.5 | 4.4 | 2.6 | 7.0 | 2.6
CCOCCCn1c(=N)c(C(N)=S)cc2c(=O)n3cccc(C)c3nc21 | 5519 | -10.3 | -14.8 | -1.9 | 1.3 | -2.4 | 2.2
COC(=O)c1ccccc1S(=O)(=O)N1CCC(C(=O)NC2=NCCS2)CC1 | 3056 | 2.4 | 11.0 | 15.4 | 29.2 | . | 3.4
COc1ccc(CCN(C)C2CCCN(C(=O)Cn3cnnn3)C2)cc1OC (configuration not stated) | 5410 | -2.3 | -7.0 | -1.1 | 0.9 | 2.4 | 1.6
CCOc1ccc(NC(=O)C2CCCN(c3c(CC)c(C)nc4ncnn34)C2)cc1 (configuration not stated) | 3096 | 9.4 | -4.0 | 7.7 | 2.4 | -3.2 | -0.2
C=CCSc1nnc(-c2cccnc2)o1 | 4001 | -1.7 | -16.2 | 23.5 | 13.2 | -0.4 | 2.1
CCc1nc2sc3c(c2c(=O)n1CCO)CCC3 | 3461 | 0.6 | -37.2 | 2.7 | 13.4 | 23.0 | 1.8
Cc1ccc(CNS(=O)(=O)c2c(N)n(C)c(=O)n(C)c2=O)cc1 | 5931 | 6.7 | -8.4 | 6.4 | -3.4 | -4.6 | 4.5
CC1CCN(C(=O)COC(=O)c2nn(C)c(=O)c3ccccc23)CC1 | 6937 | -2.9 | -26.7 | 2.2 | 8.9 | -17.7 | -1.1
Cc1cccc(OCC(O)Cn2c(=N)n(CCN3CCCCC3)c3ccccc32)c1 (configuration not stated) | 10218 | -1.2 | -20.4 | . | . | 4.8 | 4.3
Cc1cccc(C(=O)Nc2nnc(S(=O)(=O)N3CCOCC3)s2)c1 | . | -6.9 | -26.0 | -10.2 | -1.3 | 5.9 | 4.8
Cc1cc(C(=O)NN=Cc2c[nH]c3ccccc23)c(C)o1 | . | -3.5 | . | -4.4 | 5.2 | . | -8.3
CCOC(=O)C1(Cc2ccccc2C)CCCN(C(=O)c2ccnn2C)C1 (configuration not stated) | 2225 | 3.1 | -52.4 | 12.4 | 9.5 | 4.1 | 11.4
CCOC(=O)C[n+]1c(C)sc2ccc(OC)cc21 | 4223 | -7.1 | -20.9 | . | . | 0.7 | -6.8
O=C1CC(c2cccs2)CC2=C1C(c1ccccc1)n1ncnc1N2 (configuration not stated) | 4323 | -0.9 | -15.6 | . | . | -4.0 | -0.1
O=C(O)c1ccc(N=N/C(=N\Nc2ccc(C(=O)O)cc2)c2ccccc2)cc1 | 4168 | . | -8.4 | . | . | 4.3 | .
COc1ccc(CC(=O)OCc2cc3ccc(C)cc3[nH]c2=O)cc1 | 3947 | -3.2 | -2.4 | . | . | -7.4 | 1.7
Cc1ccc(OCC(=O)N(C)CC(=O)Nc2ccc(N3CCOCC3)cc2)cc1 | ? | 5.1 | -23.2 | 9.5 | -1.0 | -10.1 | 3.2
COc1ccc(-c2cc(C(=O)NCc3ccc(Cl)cc3)no2)cc1OC | 9932 | 7.9 | . | 12.7 | 8.6 | 3.9 | 2.3
O=C(/C=C/c1ccc(-c2ccc(F)cc2)o1)N1CCCC1 | 4612 | -5.1 | -45.8 | 9.4 | 16.4 | 7.7 | 1.6
COc1ccc(Cl)cc1NC(=S)Nc1cccc(C)c1 | 2113 | 6.7 | -7.6 | 1.7 | 4.1 | 8.0 | -2.9
O=C(CSc1ncn[nH]1)Nc1cc(S(=O)(=O)N2CCCC2)ccc1Cl | 4314 | 4.6 | -7.1 | 13.7 | 8.0 | 1.9 | 13.5
